Bioassay records (PubChem BioAssay)
gsp antag = antagonists of gsp mutant (McCune-Albright syndrome); gsp-mutant cells, cAMP HTRF, 30 min; control for the full effect not named in the record; 0.4% of 340,000 active; Potency, µM (doses to about 76.9 µM), without a hit: top-dose activity change, negative = inhibition, actives largely listed as inhibitors; active = falling curve of any shape with a large fitted effect; inconclusive = falling curve, mostly with a smaller effect; inactive = flat or rising curve; cell line not stated here;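 also: intracellular cAMP measured with PDE inhibitor Ro 20-1724 present during compound exposure; potency is read from the fitted curve at half-maximal effect; % is scaled to controls: 0 for no effect and ±100 for the full control effect; nearly all actives have a fitted effect of over 65% in size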
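Cells, 2000/well, grown 16–24 h in DMEM 10% FBS with 0.5 mg/ml G418, then compounds plus […] (300 uM addition stock), 30 min at 37C. cAMP read by HTRF (cAMP-d2 and anti-cAMP antibody-K in lysis buffer) after 30 min RT.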
TRPML1 blocker = blocks the human TRPML1 channel | 0.02% of 390,000 active | TRPML1-inducible cells, Ca2+ dye fluorescence, FDSS; stronger effect = lower value; inhibition of EC80 agonist-evoked calcium signal | activity change, negative = inhibition, % (no concentration beside the values); in the data active means activity change below about -50%; inconclusive means about -30% to -50%; inactive means above about -30%;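 also: stimulus is agonist 54-4 at its EC80 concentration; % is scaled to controls: 0 for no effect and ±100 for the full control effect; compound concentration not given in the record; the text of the record puts the active cut at -80%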
Target sequence (Q9GZU1 whole entry, looked up): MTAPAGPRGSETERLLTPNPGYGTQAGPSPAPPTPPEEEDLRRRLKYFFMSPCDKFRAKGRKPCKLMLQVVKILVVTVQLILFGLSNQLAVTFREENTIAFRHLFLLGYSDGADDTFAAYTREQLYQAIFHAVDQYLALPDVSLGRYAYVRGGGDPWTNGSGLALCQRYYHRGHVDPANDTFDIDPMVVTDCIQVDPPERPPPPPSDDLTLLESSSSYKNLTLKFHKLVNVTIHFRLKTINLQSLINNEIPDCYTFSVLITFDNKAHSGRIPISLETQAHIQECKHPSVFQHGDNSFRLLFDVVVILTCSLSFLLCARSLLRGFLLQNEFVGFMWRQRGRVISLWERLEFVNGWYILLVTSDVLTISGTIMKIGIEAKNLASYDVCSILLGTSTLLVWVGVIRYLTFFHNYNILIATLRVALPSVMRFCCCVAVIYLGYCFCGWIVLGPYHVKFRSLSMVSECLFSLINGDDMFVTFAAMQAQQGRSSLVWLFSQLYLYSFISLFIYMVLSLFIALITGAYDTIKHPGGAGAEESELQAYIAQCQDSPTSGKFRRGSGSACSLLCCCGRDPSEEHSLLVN
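Calcium fluorescence in TRPML1-DL cells induced overnight with Tet: a 110 s read after compound pin addition, then a 110 s antagonist read after challenge with 54-4 at 4 uM final (EC80).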
TRPML1 agonist = human mucolipin-1 channel agonism; TRPML1-expressing cells, Ca2+ dye fluorescence, FDSS; host cell line not named in the record; reference of the full effect not given here; AID 624414; 0.12% of 410,000 active; activation, % (test concentration not listed); in the data active = activation above about 50%; inconclusive = about 30% to 50%; inactive = below about 30%; also: 0% is about no effect; the text of the record puts the active cut at 80%
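Cells: TRPML1-DL, 1X Tet inducer, ~16 h at 37 degrees C/5% CO2. Dye: ABD Ca8 no-wash + quencher, 45-90 min RT. Read: 10 s baseline, compound add, 110 s agonist phase; 54-4 EC80 (4uM final), 110 s antagonist phase.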
gsp ag = activates gsp, the McCune-Albright syndrome mutation | 0.13% of 340,000 active | gsp mutant cells, cAMP HTRF, 30 min; control for the full effect not named in the record | Potency, µM (doses to about 76.9 µM), inactives show top-dose activation (cAMP increase), usual class: activators; active = well fitted activation curve with a large enough effect; inconclusive = small, poorly fitted or top-dose-only effect, or another doubt; inactive = no such curve, though single readings can be large or run the other way; cell line not stated here;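 also: phosphodiesterase inhibitor Ro 20-1724 added with compounds to block cAMP breakdown; potency is read from the fitted curve at half-maximal effect; nearly all actives have a fitted effect of over 60% in size; about a fifth of the inactives were tested at one dose only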
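Cells stably selected in G418 were plated at 2000/well, grown 16-24 hr, then given compounds in DMSO with the PDE inhibitor […] (300 uM solution added) for 30 min at 37C; cAMP was read by HTRF.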
Menin MLL FP FL = menin-MLL binding inhibition, fluorescein peptide | AID 1766 | 290,000 tested, under 10 active | Fluorescence polarization, fluorescein-MLL peptide displacement from menin | FP activity change, % at 61.4 µM; inconclusive = falling polarisation curve, or a change in total fluorescence; inactive = total fluorescence flat and polarisation flat or rising; no compound was filed as active; the % refers to the polarisation; negative = inhibition;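 also: % of control where 0% means no effect; inhibitors lower the polarisation; unlabelled MLL peptide was the positive control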
ClpP mod = qHTS Assay for Activators of ClpP; ATP-dependent Clp protease proteolytic subunit (Bacillus subtilis (strain 168)), P80244; Potency, µM (titrated, usually from 57.5 µM), without a hit: at the top dose activity change, negative = active; purified B. subtilis ClpP, FRET peptide cleavage, 20 min; AID 651965, 2013; 1.9% of 340,000 active; active = well fitted falling curve with a large enough effect; inconclusive = small, poorly fitted or top-dose-only effect; inactive = no such curve, though single readings can be large or run the other way; also: potency is read from the fitted curve at half-maximal effect; the source files actives as falling curves though it sought activators and does not explain the sign; nearly all actives have a fitted effect of over 65% in size; many hits overshoot -100%
Target sequence (P80244 whole entry, looked up): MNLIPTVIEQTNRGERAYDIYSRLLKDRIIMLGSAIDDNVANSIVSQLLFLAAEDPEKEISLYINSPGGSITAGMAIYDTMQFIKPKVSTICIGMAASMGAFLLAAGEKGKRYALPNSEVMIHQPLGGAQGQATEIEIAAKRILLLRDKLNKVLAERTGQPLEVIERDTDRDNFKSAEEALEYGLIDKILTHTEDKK
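FRET quenching reversal measured ClpP activation: 10 microg/mL B. subtilis ClpP at pH 8 with the FRET-FV decapeptide, read at 430 nm after 320 nm excitation. The 20-min minus 0-min signal was scaled between DMSO/no-enzyme wells and ADEP (5.8 microM final).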
The depositor's hits bear a star; ? = inconclusive; nt = no result given; [ ] = another dose, or the depositor's remark.

cpd	SMILES	gsp ag	ClpP mod	TRPML1 agonist	gsp antag	TRPML1 blocker	Menin MLL FP FL
1	COc1ccc(C(CC(=O)NCc2ccco2)c2ccc(F)cc2)cc1 (configuration not stated)	-42%[inhibitor]	1.4%	1.2	-19%	-3	9.1
2	O=C(NCCC1CCCCN1S(=O)(=O)c1cccs1)C(=O)Nc1ccccc1F (configuration not stated)	-4%[15.4 µM]	-5.1%	0.2	-9%	-5	nt
3	COc1ccc(C(=O)Nc2cccc(-c3ccc(N4CCOCC4)nn3)c2)cc1	2%	-4.4%	-0.7	-7%	2	nt
4	Cc1nonc1-c1ccc2c(c1)OCO2	?	1.7%	3.3	5%	6	-3.1
5	O=C(CNC(=O)C1COc2ccccc2O1)N/N=C\c1cccc(O)c1 (configuration not stated)	2%	-3.3%	1.4	4%	28	4.1
6	CCSc1nnc(NC(=O)C2CCN(S(=O)(=O)c3ccccc3C(F)(F)F)CC2)s1	-6%[15.4 µM]	-1.3%	-0.7	-9%	19	-0.3
7	CCN(CCCNC(=O)C1CCN(S(=O)(=O)N2CCOCC2)CC1)c1cccc(C)c1	-31%[inhibitor]	-3.2%	-0.4	-4%	-1	1.2
8	COc1ccc(CNC(=O)c2nccnc2CO)cc1	5%[15.4 µM]	nt	-0.7	6%	16	2.6
9	CCCCOc1ccc(C2c3c(oc4ccc(C)cc4c3=O)C(=O)N2CCCN(C)C)cc1OCC (configuration not stated)	nt	1.5%	0.7	nt	-6	nt
10	O=C(COc1ncnc2c1cnn2-c1ccccc1)Nc1ccc(S(=O)(=O)N2CCCCC2)cc1	-4%	-2.8%	-0.1	-8%	-3	1.4
11	O=C1/C(=C\c2ccc(O)c(O)c2)SC(=S)N1Cc1ccccc1	4%	nt	27	-9%	-7	?
12	Cc1cc(=O)oc2c(C)c(OCC(=O)Nc3cccnc3)ccc12	?	3.6%	-0.5	-10%	9	-2.7
13	CCn1cc(/C=C/C(=O)c2ccc(O)cc2)c(C)n1	5%[15.4 µM]	0.2%	-1.4	-25%	6	0.0
14	COc1ccc(-n2nc(C(=O)NCC(=O)N3CCN(c4cccc(Cl)c4)CC3)c3ccccc3c2=O)c(OC)c1	-10%	nt	2.3	-4%	10	3.9
15	O=C(Cn1ccn(-c2cccc(Cl)c2)c(=O)c1=O)NCCc1ccccc1	nt	-5.2%	0.5	nt	34	nt
16	COc1ccc(/C=C/C(=O)NC(=S)NN2CCCCC2c2cccnc2)cc1OC (configuration not stated)	0%[15.4 µM]	nt	1.6	2%	-10	3.6
17	Cc1ccc(CNC(=O)c2cc3c(=O)n4ccccc4nc3n(Cc3ccco3)c2=N)cc1	19%	-24%	-0.3	-5%	-4	1.4
18	COc1ccccc1NC(=O)c1nn(-c2ccc(F)c(F)c2)ccc1=O	13%	-3.6%	1.2	0%	-12	0.7
19	CSc1ccccc1C(=O)NCCSc1ccccc1	5%	-3.1%	0.8	-21%	-5	8.3
20	CN(C)S(=O)(=O)c1cccc(NC(=O)COC(=O)c2ccc([N+](=O)[O-])o2)c1	-22%	2.4%	0.6	-4%	6	4.7
21	CCC(C)(C)C1CCC(NC(=O)c2ccc(S(=O)(=O)N3CCOCC3)cc2)CC1 (configuration not stated)	-52%[inhibitor]	-2.8%	2.1	-9%	20	nt
22	Cc1cc(C)c(C#N)c(SCC(=O)Nc2ccccc2)n1	?	nt	1.5	-4%	16	-0.5
23	CCOc1ccc(-n2nc3ccc(NC(=O)c4ccc(-c5cccc(Cl)c5)o4)cc3n2)cc1	nt	2.6%	0.1	nt	-2	nt
24	CCOC(=O)c1sc(NC(=O)c2cc3c(s2)CCC(C)C3)nc1C (configuration not stated)	?	?	0.9	13%	?	2.6
25	COc1ccc(CC(=O)NNS(=O)(=O)c2ccc(F)cc2)cc1	2%[15.4 µM]	nt	-0.6	9%	-16	6.3
26	COc1ccc2c(c1OC)C(=O)N1c3ccccc3C(=O)N(c3ccccc3F)C21 (configuration not stated)	-15%	-1.6%	-0.3	-14%	-3	3.5
27	Cc1ccccc1CNCCCSc1nnnn1-c1ccccc1	nt	1.5%	0.0	nt	6	nt
28	CCCN(CC(=O)Nc1ccccc1OC)C(=O)Cn1c(=O)oc2ccccc21	-12%[15.4 µM]	nt	-0.7	4%	0	nt
29	Nc1c(-c2ccccc2)sc2ccc3ccccc3[n+]12	?	-0.9%	-1.2	-25%	-18	nt
30	COc1cc(/C=C/C(=O)OCC(=O)NC(=O)NC23CC4CC(CC(C4)C2)C3)ccc1OCC#N	7%[15.4 µM]	0.1%	0.3	5%	17	-2.8

Looked up by structure from the list above (two):
cpd	SMILES	gsp ag	ClpP mod	TRPML1 agonist	gsp antag	TRPML1 blocker	Menin MLL FP FL
26	COc1ccc2c(c1OC)C(=O)N1c3ccccc3C(=O)N(c3ccccc3F)C21 (configuration not stated)	-15%	-1.6%	-0.3	-14%	-3	3.5
11	O=C1/C(=C\c2ccc(O)c(O)c2)SC(=S)N1Cc1ccccc1	4%	nt	27	-9%	-7	?

Following part
cpd	SMILES	gsp ag	ClpP mod	TRPML1 agonist	gsp antag	TRPML1 blocker	Menin MLL FP FL
31	Cc1ccc(/C=C2/C(=N)N3N=C(CC(=O)N4CCCC4)SC3=NC2=O)o1	-70%[inhibitor]	0.3%	0.5	-25%	6	nt
32	Nc1ccc(Br)cc1-c1nc2ccccc2[nH]c1=O	-23%	1.5%	0.4	0%	11	?
33	COc1ccc(CCNC(=O)CC(C)(C)CC2=NS(=O)(=O)c3ccccc3N2)cc1OC	20%	-1.1%	-0.4	4%	13	nt
34	CCc1nc2ccccc2c(=O)n1NC(=O)c1c(O)c2ccccc2[nH]c1=O	-67%[inhibitor]	-18%	-0.6	-10%	-7	-0.1
35	Cc1ccc(C(=O)Nc2ccc3[nH]c(=O)c(=O)[nH]c3c2)cc1	nt	-17%	-0.1	nt	-6	nt
36	COc1ccc(Cc2nc3c4cnn(-c5ccccc5Br)c4ncn3n2)cc1	nt	-0.8%	0.2	nt	18	nt
37	COc1cccc(C(=O)NC2=NC(c3ccccc3F)CC(=O)N2)c1 (configuration not stated)	nt	-11%	2.6	nt	-18	nt
38	CC(=O)c1ccc(OCc2nnn(CC(=O)O)c2-c2ccccc2)cc1	nt	1.6%	0.3	nt	4	nt
39	CCC(C)NC(=O)C1CC(=O)N(CCc2ccc(F)cc2)C1 (configuration not stated)	-9%[15.4 µM]	-1.1%	1.1	-9%	-16	0.4
40	COc1ccc([C@H]2C=C3CN(C(=O)OC(C)(C)C)S(=O)(=O)[C@H]3C[C@H]2OC(=O)c2ccc(C(F)(F)F)cc2)cc1	22%	-4.1%	0.6	3%	0	-1.1
41	O=c1[nH]c(CCl)nc2cc(-c3ccc(F)cc3)sc12	?	-21%	1.3	-19%	-3	4.7
42	CCCC1CC(C)(C(=O)CSc2n[nH]c(-c3ccccc3)n2)OC1=O (configuration not stated)	-3%	-1.0%	1.2	-1%	-16	3.5
43	CC(=O)C1=C(C)OC(N)=C(C#N)C1c1cc([N+](=O)[O-])ccc1Cl (configuration not stated)	-43%[15.4 µM]	nt	0.4	-1%	2	5.6
44	CCc1cccc(C)c1NC(=O)c1cc(S(=O)(=O)N2CCCCCC2)cn1C	nt	0.1%	1.3	nt	-19	nt
45	CCc1ccc2c(CC(=O)Nc3nnc(C4CC4)s3)coc2c1	-5%	-1.7%	0.3	8%	1	-0.7
46	Cc1nnc2c3ccccc3nc(Nc3ccccc3C(=O)O)n12	nt	16µM*	0.7	nt	-14	nt
47	COc1ccc(OC)c(NS(=O)(=O)c2cc3c(cc2Cl)N(C(C)=O)CCO3)c1	nt	-0.3%	0.6	nt	5	nt
48	O=C1CNC(=O)/C1=C/c1ccc(Br)cc1	-14%[15.4 µM]	nt	0.2	1%	1	0.9
49	COc1cc(NC(=O)c2ccnnc2)cc(C(=O)Nc2cccc(C(F)(F)F)c2)c1	nt	1.0%	-0.4	-9%	10	-2.1
50	O=C(Nc1ccc(F)cc1)C(c1ccccc1)N1CCN(S(=O)(=O)c2ccccc2)CC1 (configuration not stated)	32%	?	2.2	-5%	25	0.8
51	Cc1cc(OCC(=O)NCC2(N3CCOCC3)CCCCC2)ccc1Cl	nt	0.5%	0.4	nt	4	nt
52	Cc1nc2c(-c3ccccc3)cnn2c(N2CCOCC2)c1C	15%[15.4 µM]	nt	0.9	-11%	15	1.5
53	C[C@@H](CN1C2=NC[C@H](Cc3ccc(O)cc3)N2C[C@H]1Cc1ccc(O)cc1)NC(=O)CCC1CCCCC1	nt	1.0%	-0.6	5%	17	-3.8
54	COCC(=O)N1CCN(c2cccc(Cl)c2)CC1	6%[15.4 µM]	nt	-0.4	1%	7	2.2
55	COC(=O)CCC(=O)N1CCCC(CO)(Cc2ccccc2F)C1 (configuration not stated)	18%	-3.6%	-0.4	2%	9	0.3
56	CCOC(=O)CCSc1nc(-c2ccc3c(c2)OCO3)cc(C(F)(F)F)c1C#N	21%	-23%	-0.5	34%[activator]	-1	2.6
57	COc1ccc(-c2ccc3c(c2)S(=O)(=O)c2cccc(C(=O)NC4CC4)c2C3=O)cc1OC	-39%[inhibitor]	-0.2%	-0.6	2%	-1	nt
58	CNC(=O)C1CC(=O)N(Cc2ccccc2)C(=Nc2ccc(OC)cc2)S1 (configuration not stated)	22%	5.1%	-0.7	2%	12	0.4
59	Cc1nc2ccccn2c1P(=Nc1ccccc1)(N(C)C)N(C)C	-53%[inhibitor]	3.2%	0.6	1%	5	4.9
60	CCc1[nH]nc(C(=O)N2CCCC(CCC(=O)N3CCN(c4ccccn4)CC3)C2)c1C (configuration not stated)	13%[15.4 µM]	nt	1.0	nt	13	0.4
61	CNc1c(NS(=O)(=O)c2cc(NC(C)=O)ccc2C)c(=O)oc2ccccc12	-7%	nt	0.2	7%	-5	-16
62	CC(=O)N1CCN(C(=O)CCN(c2ccccc2)S(=O)(=O)c2ccc(C)cc2)CC1	-16%[15.4 µM]	nt	0.9	-3%	1	nt
63	CC(C)(C)C(=O)NC(=S)Nc1cccc(C(=O)O)c1	24%	nt	0.6	-13%	8	2.8
64	O=C(CCCC(=O)NCC1CCCO1)NCC1CCCO1 (configuration not stated)	-1%	-2.5%	0.8	9%	-10	3.2
65	Cc1ccc(S(=O)(=O)N(CC(=O)c2ccccc2)C(=O)N2CCN(C)CC2)cc1	-8%	-2.5%	0.5	7%	-12	nt
66	C[C@H]1CCC[C@]2(C)C[C@H]3OC(=O)C(CN4CCCCCC4)[C@H]3C=C12 (some centres not stated)	?	-0.2%	1.3	-4%	-14	-2.9
67	Cc1ccc(S(=O)(=O)NC(=O)NCC2CCN(S(=O)(=O)c3ccccc3)CC2)cc1	?	nt	-0.6	-12%	-15	-9.9
68	O=C(CSc1c[nH]c2ccccc12)NC1CCCC1	29%	-0.9%	0.0	-3%	11	-2.4

Compounds as they come; about 2.1% have a hit in one of these screens.
